TRPML1 agonist = human mucolipin-1 channel agonism; 410,000 compounds, 0.12% hits; AID 624414; Q9GZU1; TRPML1-expressing cells, Ca2+ dye fluorescence, FDSS; host cell line not named in the record; reference of the full effect not given here; activation, % (concentration not given with the values); in the data active = activation above about 50%; inconclusive = about 30% to 50%; inactive = below about 30%; further: 0% is about no effect; the text of the record puts the active cut at 80%
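TRPML1-DL cells, Tet-induced overnight (~16 h, 37 degrees C), loaded 45-90 min at room temperature with Ca8 no-wash calcium dye plus quencher. FDSS fluorescence: 10 s baseline, compound pin-transfer, 110 s agonist read, then EC80 54-4 (4uM final) and 110 s antagonist read.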
TRPML1 blocker = human mucolipin-1 channel inhibition. Q9GZU1. TRPML1-inducible cells, Ca2+ dye fluorescence, FDSS; stronger effect = lower value; inhibition of EC80 agonist-evoked calcium signal. activity change, negative = inhibition, % (no concentration beside the values). 390,000 compounds, 0.02% hits. AID 624415; in the data active means activity change below about -50%; inconclusive means about -30% to -50%; inactive means above about -30%;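 further: stimulus is agonist 54-4 at its EC80 concentration; on the % scale 0 is the no-effect control and ±100 the full control effect; compound concentration not given in the record; the text of the record puts the active cut at -80%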
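Tet-induced TRPML1-DL cells loaded with Ca8 no-wash calcium dye were read kinetically on FDSS. Compound addition was followed by EC80 agonist 54-4 (4 uM final); inhibition was read over 110 s.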
ClpP mod = qHTS Assay for Activators of ClpP | purified B. subtilis ClpP, FRET peptide cleavage, 20 min | Potency, µM (titrated, usually from 57.5 µM), without a hit: top-dose activity change, negative = active | 340,000 compounds, 1.9% hits | AID 651965, 2013; active = well fitted falling curve with a large enough effect; inconclusive = small, poorly fitted or top-dose-only effect; inactive = no such curve, though single readings can be large or run the other way; further: potency means the concentration at half of the fitted maximal effect; the source files actives as falling curves though it sought activators and does not explain the sign; nearly all actives have a fitted effect of over 65% in size; many hits overshoot -100%
Target sequence (P80244 whole entry, looked up): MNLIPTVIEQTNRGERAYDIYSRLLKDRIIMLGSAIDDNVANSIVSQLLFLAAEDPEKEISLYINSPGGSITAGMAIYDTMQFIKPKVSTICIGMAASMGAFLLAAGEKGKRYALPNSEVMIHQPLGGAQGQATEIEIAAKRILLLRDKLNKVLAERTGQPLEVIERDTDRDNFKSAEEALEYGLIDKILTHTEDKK
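Purified B. subtilis ClpP, 10 microg/mL final in Tris/HCl pH8 with KCl, BSA, glycerol and Tween-20, cleaved an Abz/nitrotyrosine-quenched decapeptide. Fluorescence (ex 320, em 430) was read at 0 and 20 min at room temperature. Delta was normalized to 5.8 microM ADEP and DMSO/no-enzyme controls.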
TRPV1 PAM = enhances activation of the human vanilloid receptor TRPV1 | Q8NER1 | TRPV1-expressing cells, Fluo-8 calcium influx, capsaicin EC20 potentiation; host cell line not named in the record; control for the full effect not named in the record | potentiation, % at 8.33 µM | 320,000 compounds, 0.02% hits; active means potentiation above 80%; inconclusive means 30% to 80%; inactive means below 30%; further: 0% is about no effect
Target sequence (Q8NER1 whole entry, looked up): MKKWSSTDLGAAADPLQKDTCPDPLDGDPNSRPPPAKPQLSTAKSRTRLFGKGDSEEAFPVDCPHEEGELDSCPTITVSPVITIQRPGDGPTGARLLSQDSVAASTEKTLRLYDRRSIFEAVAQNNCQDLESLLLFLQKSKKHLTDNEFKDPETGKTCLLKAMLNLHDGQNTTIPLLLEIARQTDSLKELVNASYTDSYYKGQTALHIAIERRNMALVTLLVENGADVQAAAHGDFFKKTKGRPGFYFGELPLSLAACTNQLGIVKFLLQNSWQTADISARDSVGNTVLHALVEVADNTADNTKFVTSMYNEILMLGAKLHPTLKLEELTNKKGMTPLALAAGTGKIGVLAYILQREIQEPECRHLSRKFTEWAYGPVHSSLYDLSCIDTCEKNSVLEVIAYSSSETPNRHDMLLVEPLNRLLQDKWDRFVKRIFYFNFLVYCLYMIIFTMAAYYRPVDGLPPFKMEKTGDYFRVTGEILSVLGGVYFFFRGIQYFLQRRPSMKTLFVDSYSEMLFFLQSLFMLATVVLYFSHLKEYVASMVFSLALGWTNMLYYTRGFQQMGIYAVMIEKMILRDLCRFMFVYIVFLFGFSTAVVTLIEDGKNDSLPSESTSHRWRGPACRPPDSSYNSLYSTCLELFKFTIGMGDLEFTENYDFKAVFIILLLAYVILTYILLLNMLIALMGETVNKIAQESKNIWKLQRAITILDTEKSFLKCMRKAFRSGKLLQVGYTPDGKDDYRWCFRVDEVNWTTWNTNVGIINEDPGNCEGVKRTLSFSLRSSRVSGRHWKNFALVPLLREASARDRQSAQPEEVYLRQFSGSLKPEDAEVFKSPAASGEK
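Cells expressing TRPV1 were dye-loaded with Fluo-8 and read kinetically: 10 s baseline, 3 min after compound (agonist portion), then 2 min after EC20 capsaicin (allosteric enhancer portion). Calcium-bound dye fluorescence at 480/520 nm.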
Sfp inh = inhibitors of Bacillus subtilis Sfp phosphopantetheinyl transferase; Q9F4F7; Biochemical Sfp PPTase activity, qHTS; Potency, µM, without a hit: max response, negative = inhibition, hits mostly inhibitors; 310,000 compounds, 3.5% hits; active means well fitted inhibition curve with a large enough effect; inconclusive means small, poorly fitted or top-dose-only effect, or another doubt; inactive means no such curve, though single readings can be large or run the other way;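 further: the enzyme is Sfp with the accession as filed and its product quenches rhodamine fluorescence; potency means the concentration at half of the fitted maximal effect; 0% = enzyme reaction without inhibitor and -100% = no enzyme wells; top concentration of the series not given in the record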
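Fluorescence-quenching assay with 15 nM Sfp, 5 uM rhodamine-CoA and 12.5 uM BHQ-2-labelled ybbR peptide in pH 7.6 Hepes/MgCl2 buffer. Enzyme was pre-incubated with compound for 15 min at room temperature. Rate was taken from the 30-min fluorescence change (525/598 nm).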
PINK1 expr mod = changes PINK1 expression; PINK1 immunofluorescence, high-content cytometry, 24 h; 410,000 compounds, 0.2% hits; AID 624263; Potency, µM (series often up to 76.6 µM), inactives show at the top dose activation (PINK1 increase), usual class: activators; active = well fitted activation curve with a large enough effect; inconclusive = small, poorly fitted or top-dose-only effect; inactive = flat fitted curve, though single readings scatter; cell line not stated here;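 further: potency means the concentration at half of the fitted maximal effect; % of control where 0% means no effect; nearly all actives have a fitted effect of over 65% in size; a mitochondrial uncoupler was the plate control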
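PINK1 protein level read as immunofluorescence by microplate cytometer in a fixed, stained stable cell line after 24 h exposure to five compound concentrations, with CCCP as control.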
Menin MLL FP FL = inhibitors of human menin-MLL interaction, wild-type MLL peptide. Fluorescence polarization, fluorescein-MLL peptide displacement from menin. FP activity change, % at 61.4 µM. 290,000 tested, under 10 active; inconclusive = falling polarisation curve, or a change in total fluorescence; inactive = total fluorescence flat and polarisation flat or rising; no compound was filed as active; the % refers to the polarisation; negative = inhibition;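 further: % of control where 0% means no effect; inhibitors lower the polarisation; unlabelled MLL peptide was the positive control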
Active calls of the source: *; ? = inconclusive; . = no result given; [ ] = dose if it differs, or a comment.

compound,TRPML1 blocker,TRPV1 PAM,TRPML1 agonist,Menin MLL FP FL,ClpP mod,Sfp inh,PINK1 expr mod
O=C(Nc1cccc2ncccc12)c1ccc(F)cc1,-6,1,-0.3,0.4,-19%,25%,0.4%
CCNc1nc(NCC)nc(C(=O)Nc2ccccc2)n1,13,10,-0.1,-0.7,1.2%,6%,0.6%
C/C=C(\C)CN1CCN(c2cccc(C)c2C)CC1,-5,-22,1.2,-3.9,-1.9%,-3%,0.7%[38.3 µM]
CCN(c1ccc(OC)cc1)S(=O)(=O)c1ccc2c(c1)CC(C)N2C(=O)C1CC1 (centres undefined),45,-2,0.6,1.8,0.1%,5%,0.0%
Cn1cc(C(c2ccccn2)c2cn(C)c3ccccc23)c2ccccc21,-2,4,1.1,?,2.1%,9%,2.3%
COC(=O)c1ccc2c(c1)N(Cc1cc(C)ccc1C)C(=O)c1ccccc1S2(=O)=O,30,.,1.9,.,-4.5%,.,-1.0%
COc1ccc(N2CCN(C(c3ccccc3)c3nnnn3C(C)(C)C)CC2)cc1 (centres undefined),.,.,1.8,.,-6.7%,.,1.4%
CN(CC(=O)Nc1ncn[nH]1)S(=O)(=O)c1cc(Cl)ccc1Cl,13,1,0.2,1.2,-1.5%,10%,0.8%
CN1CCc2c(OCC(=O)NC3CCCCC3)cccc2C1=O,-3,13,0.9,1.0,-0.3%,12%,1.1%
Cc1cc(=O)n2c(nc3ccccc32)s1,0,.,-0.8,.,-1.9%,.,-0.6%
O=C(CSc1n[nH]c(-c2ccco2)n1)Nc1sc2c(c1C(=O)Nc1ccccc1)CCCC2,-19,3,2.8,11,21%,35µM*,0.3%
CCCCCN(C(=O)NC(=O)Nc1cccc(C)c1C)S(C)(=O)=O,-8,-4,4.1,0.5,-2.4%,14%,0.5%
CCC(C)N(C(=O)Cn1nnc2ccccc21)C(C(=O)NCc1ccco1)c1cccc(OC)c1 (centres undefined),0,-8,1.0,-1.4,-1.6%,0%,-2.2%
CC(=O)Nc1ccc(C(=O)OCC(=O)Nc2ccc([N+](=O)[O-])cc2C(F)(F)F)cc1,-1,-1,-0.4,3.1,-0.8%,1%,2.0%
CCOc1ccc(N2C(=O)Nc3ccc(Br)cc3C2(O)C(=O)NCCN(C)C)cc1 (centres undefined),3,28,-0.1,1.0,1.0%,9%,1.8%
Cc1cc(OCc2cc(C(=O)N3CCN(CC4CC4)CC3)no2)cc(C)c1Cl,7,-7,-0.8,.,-2.2%,-6%,1.9%
CNC(=O)c1[nH]cnc1C(=O)Nc1ccc(Cl)cc1,7,.,-0.6,1.8,4.9%,5%,1.1%
CCn1c(SCC(=O)N2CCCCC2)nc2c(c1=O)SC(C)C2 (centres undefined),-3,?,0.3,4.1,-1.1%,10%,1.7%
CN(C)CCCNC(=O)C[C@H]1C[C@H](C(=O)N2CCCCC2)[C@@]2(CCc3ccccc3)c3[nH]c4cc(-c5ccco5)ccc4c3CCN2C1=O,24,.,0.2,.,4.0%,.,-1.5%
Cc1ccc(C(=O)Nc2ccccc2C(=O)N2CC(C)OC(C)C2)cc1 (centres undefined),-7,.,-1.0,.,2.4%,.,10%

Reprinted at random: two entries already listed.
compound,TRPML1 blocker,TRPV1 PAM,TRPML1 agonist,Menin MLL FP FL,ClpP mod,Sfp inh,PINK1 expr mod
O=C(CSc1n[nH]c(-c2ccco2)n1)Nc1sc2c(c1C(=O)Nc1ccccc1)CCCC2,-19,3,2.8,11,21%,35µM*,0.3%
C/C=C(\C)CN1CCN(c2cccc(C)c2C)CC1,-5,-22,1.2,-3.9,-1.9%,-3%,0.7%[38.3 µM]

Additional compounds follow.
compound,TRPML1 blocker,TRPV1 PAM,TRPML1 agonist,Menin MLL FP FL,ClpP mod,Sfp inh,PINK1 expr mod
CCn1cc(C(=O)Nn2cnnc2)c(=O)c2ccc(C)nc21,30,-8,0.8,?,.,-6%,0.5%
COc1cc(Cl)c(C)cc1NC(=O)CSc1nc2c(c(=O)[nH]1)CCC2,2,.,3.9,.,0.5%,.,0.0%
COc1cccc(C(=O)COc2ccc3c(C)c(Cc4ccccc4)c(=O)oc3c2)c1,16,-1,0.2,-0.8,-2.4%,14%,2.6%
CCOC(=O)C(CC)Sc1ncnc2c1c(-c1ccccc1)cn2-c1ccc(OC)cc1 (centres undefined),54,.,1.2,.,22µM*,.,1.0%
Cc1noc(C)c1CSc1nnnn1-c1ccc(Cl)cc1,-7,-6,1.1,1.2,-6.4%,-3%,-0.2%
NC(=O)N/N=C/c1cc(Br)ccc1OCC(=O)NCc1ccccc1,42,-3,0.3,-6.3,-4.4%,12%,1.0%
O=C(Cn1c(=O)n(-c2ccccc2Cl)c(=O)c2sc3ccccc3c21)NC1CCCCC1,-17,.,-0.7,.,?,.,0.8%
C=CC[n+]1c(-c2ccc(C)cc2)csc1Nc1ccc(NC(C)=O)cc1,28,-4,0.4,1.7,-2.3%,8%,7.5%
COc1ccc(-n2nc(C(=O)NCCCN3CCCC3=O)c3c4ccccc4n(C)c3c2=O)cc1Cl,-12,-7,0.2,.,-6.2%,4%,2.5%
OCCC#Cc1ccc(CN2CCN(CCc3ccccc3)C(CCO)C2)cc1 (centres undefined),-7,-3,0.3,-5.1,.,2%,-0.7%
Cc1cc(Br)cn2ccnc12,18,2,-0.7,7.4,-1.0%,-4%,?
O=C(Nc1ccccc1)C1Cc2c(-c3ccccc3Oc3ccccc3)ccnc2O1 (centres undefined),-4,.,0.9,.,-3.6%,.,0.5%
Cc1ccc(CN2C(=O)CCC2C(=O)NCCCN2CCOCC2)cc1 (centres undefined),-9,-8,-0.5,2.1,0.9%,11%,1.3%
Oc1c(C(Nc2ccccn2)c2ccccc2F)ccc2cccnc12 (centres undefined),28,19,2.8,.,0.6%,.,1.0%
Cc1ccc2[nH]c(C(=O)N3CCOCC3)cc2c1,-5,-5,-0.1,3.3,-2.4%,-6%,2.5%
CC(C)(C)[C@H]1C=C(C(=O)NC2CC2)O[C@@H](OCc2ccc(CO)cc2)C1,-12,19,-1.1,1.7,0.7%,-15%,0.0%
CC(=O)C12CCCCC1CC1[C@@H]3CC(C)C4=CC(=O)CC[C@]4(C)C3CC[C@@]12C (some centres undefined),-13,-10,0.0,3.1,.,-19%,16µM*
O=C(Nc1nc(OCC(F)(F)F)cnc1/C=C\c1ccccc1)c1ccsc1,.,.,-0.4,.,4.1%,.,5.7%
c1ccc(N/N=C(\Cc2nc3ccccc3[nH]2)c2ccccc2)cc1,0,1,-0.1,5.4,-3.1%,9%,11%
CC1CC(Nc2ccccc2)c2ccccc2N1C(=O)c1ccco1 (centres undefined),5,4,2.7,2.0,.,-3%,3.6%
CCCSc1nc2c(cnn2-c2ccc(F)cc2)c(=O)[nH]1,-2,-34,-0.5,2.3,0.2%,13%,-0.8%
Cc1ccc(NS(=O)(=O)c2ccc3oc(=O)c4ncn(C)c4c3c2)cc1C,33,.,0.7,.,-5.7%,.,-1.5%
COc1ccc(-n2ncc3c(NCC4CCCO4)ncnc32)cc1 (centres undefined),0,0,2.7,1.7,?,-8%,0.9%
CC(C)c1ccc(S(=O)(=O)NC2CCS(=O)(=O)C2)cc1 (centres undefined),13,-9,0.2,.,-3.7%,.,-0.4%
O=C(CN1CCOCC1)Nc1cc(Cl)ccc1Cl,15,-27,1.2,1.1,3.3%,2%,-2.0%
Cc1cccc(-n2c(CNC(=O)c3ccc(S(=O)(=O)N4CCCC4)cc3)n[nH]c2=S)c1,11,-15,0.6,0.2,-1.0%,-17%,5.5%[38.3 µM]
COc1c2c(cc3ccc(=O)oc13)CCO2,-14,2,0.1,-2.9,3.5%,5%,0.5%
Cc1cc(C)nc(SCC(=O)N2CCC(C(N)=O)CC2)n1,-10,4,-0.4,4.2,-0.1%,7%,.
CCOc1ccccc1N1CC(C(=O)Nc2ccccc2N2CCOCC2)CC1=O (centres undefined),-15,-19,0.0,1.6,0.1%,14%,-0.6%
Cn1c(Cc2ccccc2)nnc1SCC(=O)NC1CC1,8,3,-0.3,-7.3,.,8%,0.3%
CCC(=O)Oc1ccc(C(=O)Nc2ccc([N+](=O)[O-])cc2)cc1,3,16,-0.4,-1.0,0.1%,-10%,-0.6%
CC(=O)c1cc(CN2CCN(Cc3ccccc3)C(CCO)C2)cs1 (centres undefined),0,-2,0.1,-6.1,-0.3%,10%,-0.1%
COC(=O)c1c(NC(=O)c2cccc(N3C(=O)CCC3=O)c2)sc2c1CCN(C(C)=O)C2,4,13,-0.6,.,-3.6%,4%,0.4%
COc1cc(/C=N/NC(=O)c2ccccn2)cc2c1OCO2,-11,-6,-0.3,3.9,.,50µM*,2.5%
COc1cccc(NC(=O)C2CCN(c3ccc(Sc4ccc(C)cc4)nn3)CC2)c1,-5,.,2.6,.,?,.,1.5%
CCc1ccc2[nH]c(=O)c(C(c3nnnn3Cc3ccccc3)N3CCOCC3)cc2c1 (centres undefined),14,0,0.1,-5.1,?,7%,1.1%
CCn1ncc2c(OCc3ccc(C#N)cc3)cc(C)nc21,50,23,3.3,4.6,-1.2%,-29%,0.4%
Cc1ccc(CNC(=O)Cn2cnc3c(NC(=O)OCc4ccccc4)ncnc32)o1,-12,9,0.1,.,0.3%,.,-0.2%
COc1ccc(C(=O)Nc2ccccc2Cc2ccccc2)c(OC)c1,64,2,3.6,-2.0,1.9%,-19%,11%
CCOC(=O)c1cc2c(c(CCO)n1)[C@@H](CCO)N(S(=O)C(C)(C)C)C2 (some centres undefined),1,.,0.0,.,-6.1%,.,0.3%
Cc1ccc(C(=O)NCCNC(=O)c2ccccn2)cc1,13,4,-0.7,-1.9,.,-5%,0.9%
Cc1cnc(NC(=O)CCc2ccccc2)s1,.,6,.,1.3,0.8%,6%,11%
COc1ccc(S(=O)(=O)N2CCCCCC2)cc1C(=O)N(C)Cc1ccc(Cl)cc1Cl,5,-1,2.4,.,.,.,3.8%
Cc1csc(SCC(=O)Nc2cccc(S(=O)(=O)N3CCCC3)c2)n1,-5,-18,0.2,8.2,0.3%,16%,1.9%

Screening results as filed in PubChem BioAssay.
